Source: PubChem
Vaccinia Venus = qHTS for Stage-Specific Inhibitors of Vaccinia Orthopoxvirus: Venus Reporter Primary qHTS | Vaccinia virus Venus reporter expression, fluorescence | 330,000 tested, 0.46% active | AID 720580, 2013 | Potency, µM (highest dose often 36.5 µM), inactives show top-dose activity change, negative = inhibition, usual class: inhibitors; active means well fitted inhibition curve with a large enough effect; inconclusive means small, poorly fitted or top-dose-only effect; inactive means no such curve, though single readings can be large or run the other way; tested in A549 cells; further: nearly all actives have a fitted effect of over 30% in size; inactives centre near -10
VACV mCherry inh = qHTS for Stage-Specific Inhibitors of Vaccinia Orthopoxvirus: mCherry Reporter Primary qHTS. Vaccinia virus mCherry reporter infection, fluorescence; about a quarter of the inactives have no number. Potency, µM (series often up to 36.5 µM), for inactives: at the top dose activity change, negative = inhibition, actives largely listed as inhibitors. 310,000 tested, 0.63% active; active = well fitted inhibition curve with a large enough effect; inconclusive = small, poorly fitted or top-dose-only effect; inactive = no such curve, though single readings can be large or run the other way; tested in A549 cells; further: nearly all actives have a fitted effect of over 35% in size; inactives centre near -10
An asterisk follows results filed as active; i = inactive; ? = inconclusive; nt = no result given; & = joins results of further samples; [ ] = remark or other dose. On the % scale 0 is the no-effect control and ±100 the full control effect; potency means the concentration at half of the fitted maximal effect. Random draw from the library; about 0.86% have a hit in one of these screens.

Start of the listing, in advance, seven compounds:
SMILES	Vaccinia Venus	VACV mCherry inh
Cc1cc(C(O)c2ncc(-c3ccccc3Cl)[nH]2)ccc1F (configuration not stated)	-10%	i
CC(=O)c1cccc(S(=O)(=O)N(Cc2cc3cc4c(cc3[nH]c2=O)OCCO4)CC2CCCO2)c1 (configuration not stated)	-6%	-18%
O=c1sc2ccccc2c(N2CCOCC2)c1[N+](=O)[O-]	-8%	i
CC(C)c1ccc(NC(=O)C(Cc2ccccc2)NS(=O)(=O)c2ccc3c(c2)CCC(=O)N3)cc1 (configuration not stated)	-12%	-3%
Cc1ccc(-n2nc(C)c(/C=N/NC(=O)c3cccnc3)c2Cl)cc1	-9%	i
O=C(Nc1nccs1)c1cc(S(=O)(=O)N2CCCCC2)ccc1Cl	-14%	nt
O=C(O)C/C(=C\c1cc(Br)cs1)c1nc2ccccc2o1	-3%	-16%

Main list, from the first entry:
SMILES	Vaccinia Venus	VACV mCherry inh
Cc1cc(C(O)c2ncc(-c3ccccc3Cl)[nH]2)ccc1F (configuration not stated)	-10%	i
CC(=O)c1cccc(S(=O)(=O)N(Cc2cc3cc4c(cc3[nH]c2=O)OCCO4)CC2CCCO2)c1 (configuration not stated)	-6%	-18%
O=c1sc2ccccc2c(N2CCOCC2)c1[N+](=O)[O-]	-8%	i
CC(C)c1ccc(NC(=O)C(Cc2ccccc2)NS(=O)(=O)c2ccc3c(c2)CCC(=O)N3)cc1 (configuration not stated)	-12%	-3%
Cc1ccc(-n2nc(C)c(/C=N/NC(=O)c3cccnc3)c2Cl)cc1	-9%	i
O=C(Nc1nccs1)c1cc(S(=O)(=O)N2CCCCC2)ccc1Cl	-14%	nt
O=C(O)C/C(=C\c1cc(Br)cs1)c1nc2ccccc2o1	-3%	-16%
COc1ccccc1C(=O)COC(=O)c1ccc(N(C)C)cc1	-9%	-11%
CC(C)(C)N1NC(=O)Nc2ccccc2C1=O	-15%	-13%
Cc1noc(C)c1CSc1ncnc2sc3c(c12)CCCCC3	-10%	i
CCCCn1c(N)c(N(CC)C(=O)CSc2nnc(-c3ccco3)n2CC)c(=O)[nH]c1=O	-5%	-4%
CCOc1ccc(N(CC)S(=O)(=O)c2cccc3nsnc23)cc1	-6%	i
CCC(C)NC(=O)c1cc(-c2ccccc2O)on1 (configuration not stated)	-8%	i
CC1(C)CC(=O)c2c(Cc3ccccc3)noc2C1	-9%	-5%
O=C(c1cc(COc2c(F)cccc2F)on1)N1CCC(c2ccccc2F)C1 (configuration not stated)	-4%	i
O=C(COC(=O)C1(c2ccc(Cl)cc2)CCCC1)Nc1ncc(C(F)(F)F)cc1Cl	-10%	-13%
COc1ccc(OC)c(CNc2ncnc3c2nc2n3CCCC2)c1	3%	-13%
COc1ccc(N(CC(=O)NCc2ccccc2)C(=O)CCC(=O)Nc2cc(C)ccn2)c(OC)c1	-20%	-3%
Cc1ccc(NC(=O)C(C)OC(=O)CCC2CCCCC2)cc1 (configuration not stated)	-4%	i
COC(C[C@@H](O)CC(=O)COCc1ccccc1)OC	-2%	-10%
O=C(CNC(=S)N(Cc1ccccc1)Cc1cccnc1)NC1CCCCC1	-1%	i
Cc1cccc(C(=O)NC2CCN(CC(=O)Nc3ccc4c(c3)OCO4)CC2)c1	-19%	-22%
CC1=C(C(=O)OCC2CCCO2)C(c2ccccc2Cl)NC(=O)N1 (configuration not stated)	-6%	nt
C[C@@H]1CN([C@H](C)CO)C(=O)c2cccc(NS(=O)(=O)c3cccs3)c2O[C@H]1CN(C)Cc1ccccc1	-11%	-1%
CCOC(=O)c1c(C)[nH]c(C)c1C(=O)COC(=O)c1ccc(Cl)c(S(N)(=O)=O)c1	-21%	nt
CCOC(=O)c1c(C)c(-c2ccccc2)n(CC(=O)Nc2cccc(F)c2)c1C	2%	-3%
Cc1ccc(CNC(=O)c2c(-c3ccccc3Cl)noc2C)o1	-7%	-11%
CCCS(=O)(=O)N1CCCC(C(=O)NCc2ccco2)C1 (configuration not stated)	-16%	i
O=C(Cc1cccc(NC(=O)C2CCCN(C(=O)CCc3ccccc3)C2)c1)Nc1cccc(C(=O)N2CCOCC2)c1 (configuration not stated)	-2%	-13%
COc1ccc(CC(=O)Nc2sc3c(c2C(=O)Nc2cccc(C)c2)CCCCC3)cc1	-9%[7.34 µM]	-9%[7.34 µM]
CCOc1ccc(NC(=O)CC2C(=O)N(c3ccccc3)C(=O)N2Cc2cccc(OC)c2)cc1 (configuration not stated)	-16%	-8%
C1CCN(C2CCN(c3nc4nonc4nc3N3CCSCC3)CC2)C1	7%	i
COc1cc2c(cc1NCc1ccc3c(c1)OCO3)oc1ccccc12	-24%	-24%
CC(C)CCN1CC(C(=O)NC(C)C)CC1=O (configuration not stated)	6%	3%
Cc1nccn1CCCNC(=O)CC1C(=O)NCCN1Cc1ccc(F)cc1Cl (configuration not stated)	-9%	-6%
O=S(=O)(/C(=C\c1ccc(C(F)(F)F)cc1)c1nc2ccccc2[nH]1)c1ccccc1	?	?
Cc1cc(NC(=O)CCC(=O)N(c2cccc(F)c2)C(C(=O)NC2CCCC2)c2ccc(C)o2)no1 (configuration not stated)	-11%	-21%
COC(=O)C1=CN(C(C)C)C=C(C(=O)OC)C1c1cccc(OC)c1	-7%	i
CC(C)NC(=O)NC(=O)CSc1nnc(C(F)(F)F)n1C	2%	1%
N#CCCCN1C(=O)C(O)(CC(=O)c2ccc3c(c2)OCCO3)c2ccccc21 (configuration not stated)	-18%	nt
O=C(Nc1cccc(C(=O)Nc2ccc(S(=O)(=O)O)c3cc(S(=O)(=O)O)cc(S(=O)(=O)O)c23)c1)Nc1cccc(C(=O)Nc2ccc(S(=O)(=O)O)c3cc(S(=O)(=O)O)cc(S(=O)(=O)O)c23)c1	-19%&-19%	-11%&-9%
Cc1ccc2c(=O)n3c(nc2c1)C(Cc1ccccc1)NC(=O)c1cc2ccccc2cc1-3 (configuration not stated)	-27%	-5%
CC1(C)CC(=O)c2cc(NC(=O)c3ccc(F)cc3)c(=O)oc2C1	-10%	-1%
CCOC(=O)C(NCc1ccccn1)(NC(=O)c1cccnc1)C(F)(F)F (configuration not stated)	-3%	nt
CC1(C)Cc2c(sc3nc4n(c(=N)c23)CCCCC4)CO1	-13%	-11%
O=C(COC(=O)c1cnccn1)Nc1ncc(C(F)(F)F)cc1Cl	4%	-9%
Cc1ccc(CNC(=O)c2ccc(-n3cccc3)cc2)cc1	-7%	-12%
O=C(CSc1n[nH]c(-c2ccccc2O)n1)N1CCCc2ccccc21	?	?
Cc1cc(Br)cc(Br)c1OCC(=O)NNC(=O)CCC(=O)NCc1ccccc1	-9%	-13%
Cn1ncn2c(=O)c3c(nc12)-c1ccccc1CC31CCCC1	-16%	-16%
Cc1ccc(C(=O)Nc2ccccc2C(=O)Nc2ccccn2)cc1Cl	-10%	-9%
Cc1ccc2nc(NC(=O)CN3C(=O)NC4(CCCCC4)C3=O)sc2c1	-14%	-38%
COc1ccc(N2CCN(S(=O)(=O)c3ccc(OC)c(C(=O)N4CCCC4)c3)CC2)cc1	-7%	-5%
COc1ccc(CNC(=O)CNC(c2ccccc2)c2ccccc2)cc1OC	-13%	-18%
COc1ccc(/C=N/NC(=O)CNc2n[nH]c(=O)[nH]c2=O)cc1OC	-2%	i
C/C=C(/C)C(=O)Nc1cccc(C2=NOC3(C2)C[C@H](C(N)=O)N(C(=O)c2ccccc2)C3)c1 (some centres not stated)	-6%	-19%
Cc1ccc(C2CC(=O)Nc3cc4c(cc32)OCCO4)s1 (configuration not stated)	-13%	-24%
CC(C)(Oc1ccc(Cl)cc1)C(=O)NC1CC1	3%	i
CCOC(=O)/C(=C/C=C1\Sc2cc(C)c(C)cc2N1CC)C(C)=O	18%	i
O=C(Cc1ccc(Cl)c(Cl)c1)Nc1ccc2[nH]c(=O)[nH]c2c1	-4%	0%

In the list so far, 2 have bromine:
SMILES	Vaccinia Venus	VACV mCherry inh
O=C(O)C/C(=C\c1cc(Br)cs1)c1nc2ccccc2o1	-3%	-16%
Cc1cc(Br)cc(Br)c1OCC(=O)NNC(=O)CCC(=O)NCc1ccccc1	-9%	-13%

2 entries from above, with bars between the fields.
Structure | Vaccinia Venus | VACV mCherry inh
COc1ccc(CNC(=O)CNC(c2ccccc2)c2ccccc2)cc1OC | -13% | -18%
CC(C)(Oc1ccc(Cl)cc1)C(=O)NC1CC1 | 3% | i

Carrying on.
SMILES	Vaccinia Venus	VACV mCherry inh
COc1ccc(NC(=O)c2ccc(Br)o2)c([N+](=O)[O-])c1	-18%	-22%
NC(=O)COC(=O)c1ccccc1OCC(=O)Nc1ccc(Br)cc1	-11%	-12%
O=C(NCc1ccco1)C(c1ccccc1F)N(Cc1cccnc1)C(=O)Cn1nnc2ccccc21 (configuration not stated)	-24%	nt
COc1ccc(S(=O)(=O)N2CCCOC2CNC(=O)C(=O)NCc2ccccc2C)cc1 (configuration not stated)	-20%	i
Nc1ccc(-c2cc(-c3cccc(N)c3)nc(-c3ccccc3)n2)cc1	-14%	-4%
COc1ccc(-c2cc(C(=O)N(C)Cc3nc4ccccc4c(=O)[nH]3)c3ccccc3n2)cc1OC	-17%	-16%
COc1ccc(S(=O)(=O)NCC(=O)N(CC(=O)NCc2ccccc2)Cc2ccco2)cc1	-13%	i
O=C(COc1ncnc2sccc12)Nc1cccc(S(=O)(=O)N2CCOCC2)c1	-5%	i
CCOc1ccc(C(=O)NCC(=O)OCCCC(=O)c2ccc(F)cc2)cc1OCC	-7%	i
Cc1nc2ncc(Br)cc2[nH]1	-13%	i
O=C1/C(=C/c2ccc(Br)cc2)Oc2cc(O)ccc21	-3%	-6%
CCN1C(=NCCOC)N[C@@H](c2ccccc2)[C@H](C(=O)OC)[C@H]1C	-18%	i
Cc1cccc(NC(=O)C2C3CCC4C(CCC32)C4(Cl)Cl)c1 (configuration not stated)	-11%	12%
Cc1c(C(=O)O)c(=S)sn1CCOc1ccccc1	-10%	-5%
Cc1ccc(Nc2nc(COC(=O)COc3ccc(C=O)cc3)cs2)cc1	-17%	i
CCC(C)N(NC(C)=O)c1nc(Cl)nc(NC(C)C)n1 (configuration not stated)	-9%	nt
O=C(NC1CCCCC1)N1Cc2cc(-c3ccccc3)ccc2-n2nncc2C1	-20%	i
Cc1ccc(Cl)cc1-n1ncc2c(NC3CCCCCC3)ncnc21	-18%	-28%
CCOc1ccc(OCC)c(NC(=O)Cn2nc(CC)n3c(cc4sccc43)c2=O)c1	-19%	-19%
CN=C(NC)SC1CC(=O)N(c2ccccc2)C1=O (configuration not stated)	1%	nt
Cc1cc(C)cc(NC(=O)Cn2c(C)cc(C)c(C#N)c2=O)c1	-1%	2%
CCN(C(=O)CSc1nnc(Nc2ccc(OC)cc2)s1)C1CCS(=O)(=O)C1 (configuration not stated)	-19%	-9%
Cc1cc(C)cc(NC(=S)NCc2cccnc2)c1	-4%	-10%
Cc1cc(N)cc(C)c1-c1c(Br)cc(N)cc1Br	-28%	-13%
CC(O)(c1cccc(F)c1)c1nc(-c2ccc(S(C)(=O)=O)cc2)cs1 (configuration not stated)	-12%	-2%
CCCCOc1ncnc2c1[nH]c1ccc(F)cc12	?	?
COc1ccc2nc3oc(C(=O)N4CCN(c5ccccc5F)CC4)cc3cc2c1	13%	-4%
CC(=O)Nc1ccc(C(=O)COC(=O)C2CC2)c(F)c1	-15%	-20%
CCNC(=O)CC1SC(=Nc2ccc(Cl)cc2)N(CC)C1=O (configuration not stated)	-12%	-6%
COc1ccc(CC(NC(C)=O)C(=O)NC2CCN(C(=O)C3CCCCC3)CC2)cc1OC (configuration not stated)	-1%	-9%
CC1Cc2cc(-c3csc(NC(=O)Cc4ccccc4)n3)ccc2N1S(C)(=O)=O (configuration not stated)	?	?
Cc1cc(C)c2oc(C(=O)Nc3c(C(=O)c4ccc(F)cc4)oc4ccccc34)cc(=O)c2c1	-1%	-3%
CCOC(=O)c1cc(S(=O)(=O)N(C)Cc2ccccc2)cn1C	-10%	i
Cc1nc2ccc(S(=O)(=O)NCC(=O)N(C)Cc3ccccc3)cc2s1	-5%	i
COc1ccccc1NC1=C(N2CCCCC2)C(=O)c2ccccc2C1=O	10µM*	?
CC(C)C[C@@H](CO)N1CCN(Cc2ccccc2)CCC1=O	-15%&-3%&-2%	-12%
COc1cc2nc(N(C)CCCNC(=O)C3CCCO3)nc(N)c2cc1OC (configuration not stated)	-9%	-14%
CCCc1cc(=O)[nH]c2nnc(SCC(=O)Nc3ccc(NC(C)=O)cc3)n12	-5%	i
CCOc1ccccc1NC(=S)N1CCCc2ccccc21	-4%	-19%
CC1=C(C(=O)Nc2ccc(Cl)cc2)C(C(C)C)n2nc(SCc3ccc(Cl)cc3)nc2N1 (configuration not stated)	-4%	-6%
O=C(COC(=O)c1ccc(O)cc1)Nc1nccs1	5%	i
COc1cc(C)ccc1OCc1cc(C(=O)N2CCCCCCC2)no1	-25%	-26%
Cc1c(NC(=O)C(C)OC(=O)COc2ccc(C#N)cc2)c(=O)n(-c2ccccc2)n1C (configuration not stated)	-1%	i
Cc1nc2c3ccccc3nc(NNC(=O)CCC(=O)NC(C)C)n2n1	-9%	-6%
COc1cccc(CN2CCc3nc(N4CCN(c5ncccn5)CC4)ncc3C2)c1	?	?
COc1ccc(C2=CC(c3ccccc3Cl)n3nc(-c4ccc(C)cc4)nc3N2)cc1 (configuration not stated)	-8%	-12%
CSc1ccc(CCNC(=O)CN2C(=O)COc3ccc(S(=O)(=O)N4CCCCCC4)cc32)cc1	-19%	-17%
COc1cc(C#Cc2c(-c3cncn3C)n(C)c3ccc(-c4ccc5cc[nH]c5c4)cc23)cc(OC)c1	-27%	-7%
